# TGFb SMAD3 inh = inhibitors of TGF-b signaling; 410,000 tested, 1.2% active; HepG2 CAGA-GFP TGF-b/SMAD3 reporter, GFP fluorescence, 18 h; TGF-beta stimulated, 500 pg/mL final; AID 588855; Potency, µM (top dose mostly 46.1 µM), without a hit: at the top dose activity, negative = inhibition, most hits filed as inhibitors; further: potency means the concentration at half of the fitted maximal effect; on the % scale 0 is the no-effect control and ±100 the full control effect; nearly all actives have a fitted effect of over 65% in size
#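 Smad-responsive CAGA-GFP expression was quantified in HEPG2 cells exposed to compounds and 500 pg/mL final TGF-beta for 18 h at 37 degrees C; unstimulated wells defined full inhibition.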
# Akt phos inh = Akt phosphorylation inhibition | 360,000 tested, 0.32% active | Neuro2A IGF-stimulated pAkt S473 HTRF, 20 min; hits give low values | activity change, % for hits at 50 µM; in the data active means activity change below about -80%; inconclusive means mostly about -51% to -80%; further: on the % scale 0 is the no-effect control and ±100 the full control effect
#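 Neuro2A cells (4,500/well, DMEM with 0.5% FBS) were treated with compound at a single 50 µM final concentration, stimulated with 6 nM IGF for 20 min at 37 °C, and lysed. Phospho-Akt Ser473 was read by HTRF as 665/615 ratio ×10^4.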
# Nrf2 block = Nrf2 pathway inhibition; AID 504444; Potency, µM (doses to about 46 µM), without a hit: at the highest dose activity change, negative = inhibition, actives largely listed as inhibitors; 360,000 tested, 2.1% active; A549 ARE-Fluc reporter, luciferase luminescence, 18-24 h; further: potency means the concentration at half of the fitted maximal effect; on the % scale 0 is the no-effect control and ±100 the full control effect; nearly all actives have a fitted effect of over 60% in size
#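 Nrf2 activity is the BugLite luminescence, read 15 min after reagent at room temperature, following CellTiter-Fluor cytotoxicity readout (30 min, 37C). Compound titrations were applied for 18-24 h to 5000 A549 ARE_Fluc cells/well in 5% FBS OPTI-MEM.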
# A549 viability = kills or reduces viability of A549 cells in Nrf2 counter-screen; 390,000 tested, 0.16% active; A549 ARE-Fluc cells, CellTiter-Fluor viability, 18-24 h; Potency, µM (series often up to 46 µM), inactives show top-dose activity change, negative = cytotoxicity, most hits filed as inhibitors; AID 504648; further: potency means the concentration at half of the fitted maximal effect; on the % scale 0 is the no-effect control and ±100 the full control effect
#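 A549 ARE-Fluc cells in 5% FBS OPTI-MEM, 5000 cells/well, rested 2 h then exposed to compounds in concentration-response for 18-24 h at 37 °C. Viability by CellTiter-Fluor fluorescence (Ex 405/Em 525) after 30 min; luciferase luminescence (BugLite, 15 min, RT) read afterwards.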
# MmCpn inh = inhibitors of Methanococcus maripaludis chaperonin (MmCpn); purified Mm-Cpn ATPase, ADP Transcreener TR-FRET; Potency, µM (doses to about 76.9 µM), for the others: at the top dose activity, negative = inhibition, usual class: inhibitors; AID 504842; 330,000 tested, 0.031% active; further: potency means the concentration at half of the fitted maximal effect; on the % scale 0 is the no-effect control and ±100 the full control effect; nearly all actives have a fitted effect of over 80% in size
#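 Eu-cryptate anti-ADP/ADP-d2 competition gives a ratio inversely related to ADP. Enzyme at 25 nM was pre-exposed to compound for 10 min, then given 10 uM ATP for 30 min, 37°C throughout.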
# CCT chaperon mod = changes cytosolic chaperonin activity. purified chaperonin ATPase assay, HTRF ADP detection, 30 min. activity change, % (test concentration not listed), hits read low. 360,000 tested, 0.3% active; in the data active means activity change below about -30%; further: on the % scale 0 is the no-effect control and ±100 the full control effect
#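 TRiC (40 or 20 nM final, by batch activity) in 30 mM Tris pH 7.4, 100 mM KCl, 5 mM MgCl2, 1 mM DTT was treated with compound at 76 uM single dose, then 10 uM ATP, 30 min at 37 °C. ADP was read by HTRF Transcreener.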
# Nrf2 ARE act = activates Nrf2 signaling; AREc32 ARE-luciferase reporter (MCF7-derived line), luminescence, 24 h; Potency, µM (highest dose often 46.1 µM), for the others: top-dose activation, most hits filed as activators; 410,000 tested, 0.31% active; AID 624171; further: potency means the concentration at half of the fitted maximal effect; % of control where 0% means no effect; nearly all actives have a fitted effect of over 65% in size
#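 Nrf2 activation is followed as ARE-luciferase induction in the AREc32 line after one day of compound treatment; luminescence is read with Steady-Glo.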
# * = called active by the depositor; i = inactive; ? = inconclusive; nt = no result given; & = joins results of further samples; [ ] = another dose, or the depositor's remark. Unless noted, the call rests on the fitted dose curve; in most records, active means well fitted curve in the direction sought with a large enough effect; inconclusive means small, poorly fitted or top-dose-only effect, or another doubt; inactive means no such curve, though single readings can be large; an effect the other way counts as inactive or inconclusive.
molecule	Akt phos inh	A549 viability	Nrf2 block	Nrf2 ARE act	CCT chaperon mod	MmCpn inh	TGFb SMAD3 inh
CN(Cc1ccc(Cl)cc1)C(c1cc2ccccc2o1)c1nnnn1C(C)(C)C (stereo unspecified)	i	nt	nt	0.5%	0.2	nt	nt
CC1(C)NC(=O)N(CNc2cc(Cl)ccc2Cl)C1=O	i	-2.1%	16.3%	-0.7%	-2.0	0.8%	-6.6%
Cc1c(OC(C)C(=O)N2C[C@H]3C[C@@H](C2)c2cccc(=O)n2C3)ccc2c3c(c(=O)oc12)CCCC3 (stereo partly specified)	i	7.6%	-8.0%	0.2%	0.1	0.7%	-1.6%
COc1ccc(-c2cnnn2-c2ccc(NC(=O)/C=C/c3ccc(OC)c(OC)c3)cc2)cc1	i	2.5%	?	1.0%	-0.1	?	-6.3%
COC(=O)c1cccc(CN2C(=O)SC(Nc3ccc(C)cc3)C2=O)c1 (stereo unspecified)	i	7.9%&0.1%	9.4%&11.3%	0.2%&0.9%	1.0	0.0%	?
COc1ccc(-c2cc(-c3n[nH]c(=S)n3-c3cc(OC)ccc3OC)[nH]n2)cc1	i	-3.5%	-11.8%	1.9%	0.3	-2.5%	16.7%
N#CC(c1ccccc1F)(c1ncc(C(F)(F)F)cc1Cl)N1CCOCC1 (stereo unspecified)	nt	0.6%	nt	-0.1%	0.0	-26.9%	-16.2%
CN(C)NC(=S)Nc1ccc(S(=O)(=O)N2CCCCC2)cc1	i	-1.2%	0.6%	-0.7%	-2.0	-3.0%	8.6%
CN(Cc1ccc(Cl)c(Cl)c1)C(c1cc2ccccc2o1)c1nnnn1C(C)(C)C (stereo unspecified)	i	nt	nt	1.1%	1.0	nt	nt
CC(=O)N(CCC(Cc1ccccc1)c1ccco1)Cc1ccco1 (stereo unspecified)	i	0.9%	-11.6%	2.7%	-1.9	0.5%	?
CC1=C(C(=O)Nc2cccnc2)C(c2ccncc2)n2nnnc2N1 (stereo unspecified)	i	nt	?	-0.4%	-2.1	-0.7%	3.1%
COc1ccc(NS(=O)(=O)c2c(C)cc(C)cc2C)cn1	i	-10.5%	-7.5%	-0.4%	1.4	-11.5%	-16.9%
CCOC(=O)c1c(NC2OC(=O)c3c2ccc(OC)c3OC)sc(C(=O)OC(C)(C)C)c1C (stereo unspecified)	i	4.3%	?	4.1%	1.3	1.0%	-10.7%
CN(C)CCNC(=O)CCCNC(=O)Cn1cnc2sc3c(c2c1=O)CCCC3	-119.3%*	16.2%	-14.6%	0.1%	0.2	1.2%	-1.6%
COC(=O)[C@@H]1CC[C@@](C)(c2ccc(OC)cc2)C1(C)C	i	-4.3%	16.9%	0.3%	-0.5	3.3%	4.4%
O=C1C2C(C(=O)N1CCN1CCN(Cc3ccc([N+](=O)[O-])cc3)CC1)[C@H]1C=C[C@@H]2C1 (stereo partly specified)	i	-2.6%	?	0.4%	-0.1	-1.1%	-17.1%
Cc1cc2oc(=O)cc(CN3CCN(S(=O)(=O)c4cccs4)CC3)c2cc1C	i	-2.4%	?	-0.1%	-0.5	0.1%	8.0%
CC(C)(C)OC(=O)CNC(=O)c1[nH]cnc1C(=O)NC1CCNCC1	i	-1.5%	12.4%	-0.4%	-3.6	-4.3%	3.1%
CCOc1ccc(S(=O)(=O)Nc2ccc(OC)nc2)cc1	i	3.0%	?	5.3%	2.6	0.2%	2.7%
CCN(CC)CC#CCC(C)(c1ccccc1)c1ccccc1	i	?	-12.9%	-0.2%	-1.2	-0.4%	?
O=C(Nc1nnc(CCN2CCCCC2)s1)c1ccccc1Cl	i	0.1%	8.5%	0.5%	-3.3	-1.6%	-2.6%
COc1ccc(NC(=O)Nc2c(C)n(C)n(-c3ccccc3)c2=O)c(OC)c1	i	1.7%	22.0%	0.2%	-3.6	-1.8%	3.2%
COC(=O)c1ccc2nc(-c3ccc(OC)c(OC)c3)c(Cc3ccc(C)cc3)n2c1	i	nt	nt	10.0%	-0.3	nt	?
COc1ccc(OC)c(-c2cc(C(=O)N3CCOCC3)no2)c1	i	1.3%	6.2%	5.3%	-0.7	0.6%	14.2%
Fc1ccc(-c2cc3nc(-c4ccccc4)cc(N4CCOCC4)n3n2)cc1	i	6.2%	?	0.3%	-0.8	-0.1%	0.2%
Cc1noc(C)c1C(=O)NCC1COc2ccccc2O1 (stereo unspecified)	i	-5.8%	-8.2%	-0.9%	-2.4	0.8%	10.5%
CCOC(=O)C1Oc2ccccc2C(c2ccoc2)=C1C(=O)OC (stereo unspecified)	i	6.9%	11.6%	11.8%	1.4	1.9%	-38.9%
O=C(c1cc(COc2ccc(F)c(F)c2)on1)N1CCN(C/C=C/c2ccccc2)CC1	i	-8.2%	?	4.7%	1.1	1.0%	?
O=C(O)c1cc(Nc2cc(Cl)c3nonc3c2[N+](=O)[O-])ccc1O	i	?	-11.2%	-0.2%	1.5	-17.1%	-25.7%
COc1ccc(-c2nc3ccccc3nc2-c2ccccc2)cc1OC	i	-1.7%	-7.9%	4.5%	-2.3	-2.6%	20.4%
CS(=O)(=O)c1ccc(-c2csc(-c3cccnc3)n2)cc1	i	-1.7%	-10.6%	1.5%	0.0	-10.0%	-4.4%
Cc1ccc(-c2nn(-c3ccccc3)c3[nH]c(=O)c(CNCc4ccccc4)cc23)cc1	i	-10.9%	-12.8%	4.6%	-4.8	-6.5%	?
O=S(=O)(Nc1nc2ccccc2nc1Cl)c1ccc(Br)cc1	i	-11.9%	?	6.8%	1.3	0.3%	12.6µM*
COc1ccc(C2NC(c3ccc(OC)cc3OC)C(C)C(=O)C2C)c(OC)c1 (stereo unspecified)	i	-7.6%	-6.6%	2.8%	-1.4	-2.0%	11.2%
CC1(C(=O)Nc2ccc3c(c2)OCO3)CCN1Cc1cccc2c1OCO2 (stereo unspecified)	i	nt	nt	3.8%	1.1	nt	-7.6%
COc1cccc(NC(=O)Nc2c(C)n(C)n(-c3ccccc3)c2=O)c1	i	-13.7%	-12.7%	0.1%	-4.3	0.3%	-7.4%
Cc1c(N2C(=O)CSC2c2ccc(F)cc2)c(=O)n(-c2ccccc2)n1C (stereo unspecified)	i	-1.8%	1.5%	1.3%	2.9	2.7%	-7.1%
COC(=O)c1cccc(F)c1C(=O)c1cccc2ccccc12	i	-6.2%	-3.0%	2.3%	0.6	nt	-7.8%
COC(=O)c1cc(Br)cn1S(=O)(=O)c1ccccc1	i	2.1%	-12.3%	-0.1%	1.0	1.4%	36.5%[activator]
Cc1[nH]n2c(=O)c3c(nc2c1-c1ccc(F)cc1)CCCC3	i	-16.1%	?	-0.6%	-4.5	2.0%	8.4%
O=C(COC(=O)c1ccccc1Oc1ccccc1)NC1CC1	i	1.6%	4.0%	1.4%	-1.8	-0.4%	0.4%
Fc1ccc(-c2csc(-c3cccnc3)n2)cc1F	i	-1.8%	?	15.3%	-1.8	-3.9%	1.5%
Cc1ccc(S(=O)(=O)N2[C@@H](c3ccc(C(C)(C)C)cc3)C(C(=O)O)=CC[C@H]2c2cccc(Cl)c2)cc1	i	-2.3%	?	3.7%	-1.1	0.4%	?
COc1cc(C)c(S(=O)(=O)N2CCCC2)cc1C	i	2.4%	nt	-0.1%	0.0	-0.6%	9.5%
CCCCn1nnnc1C(c1cc2ccccc2o1)N1CCCCC1 (stereo unspecified)	i	nt	nt	4.3%	-0.2	nt	nt
Nc1ccc(C(=O)Oc2ccc([N+](=O)[O-])cc2)cc1	i	2.4%	-2.7%	7.6%	0.9	4.1%	5.1%
CCCC(=O)N1CCC1(C)C(=O)Nc1ncc(C(=O)OC)s1 (stereo unspecified)	i	nt	nt	0.8%	-1.0	nt	7.8%
CSCCC(Nc1ccc(S(=O)(=O)N2CCOCC2)cc1[N+](=O)[O-])C(=O)OCC(=O)NCC(C)C (stereo unspecified)	i	-9.2%	-2.2%	0.0%	-1.8	0.6%	-4.9%
COc1cc(SC)ccc1C(=O)OC(C)C(=O)NC1CCCC1 (stereo unspecified)	i	9.9%	-12.3%	-0.6%	-1.4	-0.3%	6.6%
Cc1cc2ncc(-c3ncc(C(F)(F)F)cc3Cl)cn2n1	i	1.4%	?	-2.0%	-0.6	0.6%	24.8%
O=C1N(c2ccccc2)C(c2ccc(Cl)cc2)N2CCCN12 (stereo unspecified)	i	6.1%	2.5%	0.7%	1.0	0.6%	4.1%
COc1ccc(Cl)cc1NC(=O)COC(=O)C1CC1	i	-0.9%	2.8%	12.9%	0.2	2.6%	-3.5%
CNc1nc(-c2ccccc2)c2sccc2n1	i	nt	nt	16.9%	0.4	nt	8.0%
CCOC(=O)C(=O)N(C)c1c(CC)nc2c(OCCC3CCCCC3)cccn12	i	nt	nt	0.4%[9.22 µM]	-3.0	nt	-6.6%
COc1cc(C2SCC(=O)N2c2c(C)n(C)n(-c3ccccc3)c2=O)ccc1O (stereo unspecified)	i	0.1%	-5.8%	0.5%	1.9	0.5%	-0.5%
Cc1cccc(N2CCCC2=Nc2ccc(Br)cc2C#N)c1	i	-0.2%	?	1.9%	-1.9	-0.1%	-3.2%
CCN1CCN(C(=O)c2cc(COc3ccc(F)c(F)c3)on2)[C@@H](C)C1=O	i	nt	nt	5.8%	1.5	nt	-16.7%
CCN1CCN(S(=O)(=O)c2cc(C)c(OC)cc2C)CC1	i	8.9%	9.0%	-0.2%	2.6	0.7%	2.6%
CN(Cc1ccccc1)C(=O)c1ccc(Nc2nc(CN)cs2)nc1	i	nt	nt	0.5%[9.22 µM]	-0.7	nt	8.3%
NS(=O)(=O)c1cccnc1Nc1cccc(Cl)c1Cl	i	6.9%	nt	2.9%	-0.5	nt	-5.3%

# Entries of single compounds, looked up by structure. Order of screens: Akt phos inh	A549 viability	Nrf2 block	Nrf2 ARE act	CCT chaperon mod	MmCpn inh	TGFb SMAD3 inh
# Results for COc1ccc(C2NC(c3ccc(OC)cc3OC)C(C)C(=O)C2C)c(OC)c1 (stereo unspecified) : i	-7.6%	-6.6%	2.8%	-1.4	-2.0%	11.2%
# Results for NS(=O)(=O)c1cccnc1Nc1cccc(Cl)c1Cl : i	6.9%	nt	2.9%	-0.5	nt	-5.3%

# High-throughput results: PubChem, National Center for Advancing Translational Sciences (NCATS)

# These rows are one share of the data (hit frequency here may not be typical).
